AmpC inh no det: Promiscuous and Specific Inhibitors of AmpC Beta-Lactamase (assay without detergent). P00811. AmpC nitrocefin hydrolysis, absorbance 480 nm, no detergent; potencies from a single point are estimates. Potency, µM (titrated, usually from 28.7 µM), for inactives: at the top dose activity change, negative = inhibition. hit rate 1.8% among 71,000. AID 585, 2007; active = falling curve, for most hits resting on a single point; inconclusive = weak or doubtful change; inactive = flat or rising curve; also: % of control where 0% means no effect; about half of the hits show no inhibition at the top dose; a quarter of the inactives give rising signals
Target sequence (P00811 whole entry, looked up): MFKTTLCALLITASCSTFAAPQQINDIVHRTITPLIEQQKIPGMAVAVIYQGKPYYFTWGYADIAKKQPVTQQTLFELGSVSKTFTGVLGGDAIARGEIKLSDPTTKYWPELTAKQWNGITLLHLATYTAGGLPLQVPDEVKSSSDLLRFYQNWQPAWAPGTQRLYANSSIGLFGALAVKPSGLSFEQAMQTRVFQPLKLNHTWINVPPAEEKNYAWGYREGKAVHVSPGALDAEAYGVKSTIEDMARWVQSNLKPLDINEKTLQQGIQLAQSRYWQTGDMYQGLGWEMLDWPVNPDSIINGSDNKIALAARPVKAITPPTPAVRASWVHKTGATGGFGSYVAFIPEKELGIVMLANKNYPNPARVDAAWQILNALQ
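AmpC in 20 mM phosphate buffer pH 7.0 was preincubated 15 min at room temperature with compounds. Nitrocefin (800 uM stock) was then added and hydrolysis followed at 480 nm every 20 s for 4 min.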
* = called active by the depositor; & = joins results of further samples; [ ] = another dose, or the depositor's remark. Potency is read from the fitted curve at half-maximal effect. This is a subset; count on the stated rates, not on these rows.

SMILES	AmpC inh no det
CCOC(=O)c1[nH]c(C)c(/C(O)=C2\C(=O)C(=O)N(CCN(C)C)C2c2ccc(C)o2)c1C (stereo unspecified)	-1.9%
OC[C@@H]1O[C@@H](n2cnc3c(NC4CCCCC4)ncnc32)[C@@H](O)[C@H]1O	-3.6%
CSCC[C@H](NC(=O)NCc1ccccc1F)C(=O)O	7.4%
Fc1ccc(CSc2ncnc3nc[nH]c23)cc1	12.0%
COc1cc(S(=O)(=O)N(Cc2ccc(C)cc2)C2CCCCC2)ccc1-n1cnnn1	33.4%
CCOC(=O)C1=C(N)Oc2cc(C)oc(=O)c2C1c1cccnc1 (stereo unspecified)	2.6%
CCOc1ccc(CCNC(=O)CN2CCN(Cc3ccccc3C)C2=O)cc1OCC	101.8%
CCOCCCNC(=O)c1ccccc1SC	1.4%
O=C(c1ccc(F)cc1)c1cn[nH]c1-c1ccccc1O	-14.2%
C[C@@H]1CCCN(C[C@@H](O)CN2CCCc3ccccc32)C1	-7.2%[5.75 µM]
CC(C)Nc1nc(NC(C)C)nc(N(C)C(N)=O)n1	-7.3%
COc1ccc(C2OC(=O)CC2C(=O)NC(C)C)cc1 (stereo unspecified)	-9.1%
Cc1ccc(CC(NC(=O)c2ccccc2)C(=O)N2CCCC2C(=O)O)cc1 (stereo unspecified)	-6.8%
COC(=O)Cc1[nH]nc2c1C1(C(=O)N(Cc3ccc(Cl)cc3)c3ccccc31)C(C#N)=C(N)O2 (stereo unspecified)	50.7%
CCOc1ccc(N2C(=O)CC(NCCc3ccncc3)C2=O)cc1 (stereo unspecified)	-0.2%
CC(C)(Oc1ccc(Cl)cc1)C(=O)N1CCN(c2ccccn2)CC1	118.0%
Nc1ccc(N2C(=O)c3ccccc3C2=O)c(Cl)c1	-2.9%
O=C(c1ccc(-c2ccccc2)cc1)N1CCN(C(=O)c2ccco2)CC1	84.9%
c1ccc(CSCc2cn3ccsc3n2)cc1	-1.7%
COc1ccc(NC(=O)CS(=O)CC(=O)Nc2cc(Cl)ccc2OC)cc1 (stereo unspecified)	19.2%
CCCc1n[nH]c2c1C(=O)CC(C)(C)C2	6.9%
O=C(NCc1ccc2c(c1)OCO2)c1cccc2c1C(=O)N(C1CCCCC1)C2	2.51µM*[single pt active]
O=C(COC(=O)C1COc2ccccc2O1)NC(=O)NC1CCCC1 (stereo unspecified)	-3.4%
C=CCc1ccccc1OCC(O)CN1CCN(c2ccc(C)cc2)CC1 (stereo unspecified)	39.2%
Cc1ccc(NC(=O)CC2C(=O)NC3CCCCC3N2C(=O)c2ccc(F)cc2)cc1C (stereo unspecified)	63.0%
CS(=O)(=O)N1CCCC(C(=O)NCCN2CCC(Cc3ccccc3)CC2)C1 (stereo unspecified)	-4.0%
O=C(Cn1cnc2c(cnn2-c2ccc(Cl)cc2)c1=O)NC1CCCCC1	2.7%
COc1ccc2c(c1OC)C(=O)N(c1ccc3c(c1)CCC3)C2=O	33.3%
CCOC(=O)c1c(C)oc2ccc(OC(=O)N3CCOCC3)cc12	81.0%
COc1ccc(NC(=O)N2CCCC(c3nc(-c4ccc(C(C)C)cc4)no3)C2)cc1 (stereo unspecified)	27.9%
COc1ccc(NC(=O)CSc2nc(O)c(Cc3ccccc3)c(=O)[nH]2)cc1	-12.4%
OC(COC1CCCCC1)CN1CCN(c2ccccc2)CC1 (stereo unspecified)	12.3%
CCOC(=O)C1=C(C)NC(c2ccccc2)=C(C(=O)OCc2ccc([N+](=O)[O-])cc2)[C@@H]1C#Cc1ccccc1	-4.0%
O=C(c1c[nH]c2ccccc12)C(O)C(c1ccccc1)N1CCOCC1 (stereo unspecified)	16.3%
CCOc1ccc2[nH]c(=O)c(CN(CCO)C(c3nnnn3C3CCCCC3)C(C)C)cc2c1 (stereo unspecified)	60.9%
CCOC(=O)c1[nH]c(C)c(C(=O)NC(C)(C)C)c1C	13.1%
N#Cc1ccc2ccn(CC(=O)NCc3ccccc3)c2c1	-16.7%
CCOC(=O)N1CCc2c(sc(NC(=O)c3ccc(S(=O)(=O)N4CCCC4)cc3)c2C#N)C1	1.2%
Cc1nc2c(C)cccn2c1/C(O)=C1\C(=O)C(=O)N(CCN2CCOCC2)C1c1ccncc1 (stereo unspecified)	-1.5%
Cc1occc1C(=O)NCc1ccccc1F	-3.0%
Cc1cc(C)c2cc(C#N)c(SCC(=O)NCC3CCCO3)nc2c1 (stereo unspecified)	12.4%
O=C(CC1CCCCC1)NCc1ccccn1	0.0%
Cc1cc(C)c2c(=O)c3c(oc2c1)C(=O)N(CCO)C3c1cccc(O)c1 (stereo unspecified)	42.0%
O=C(O)CNC(=O)[C@H]1NC(C(F)(F)F)(C(F)(F)F)OC1(C(F)(F)F)C(F)(F)F	-1.7%[5.75 µM]
COCCOC(=O)c1[nH]c2c(c1C)C(=O)CC(c1cc(OC)ccc1OC)C2 (stereo unspecified)	23.4%
CN1CCN(C(=O)c2ccc(S(=O)(=O)c3ccc(Br)cc3)cc2)CC1	44.8%
COc1ccc(NS(=O)(=O)c2ccc(Oc3ncccn3)cc2)cc1	4.4%
NC(=NCc1ccc(Cl)cc1)SCCCc1cnc[nH]1	-8.0%
CC(=O)N1CCCc2cc(S(=O)(=O)N3CCc4ccccc4C3)ccc21	92.5%
Cc1ccc(-c2nc(CS(=O)(=O)CC(=O)N3CC(C)CC(C)C3)c(C)o2)cc1 (stereo unspecified)	110.9%
CS(=O)(=O)N1CCN(c2ccccc2F)CC1	2.1%
N#Cc1cccc(-c2nnc(SCc3ccccc3C#N)o2)c1	19.2%
CCc1c(C(=O)NC2CCCC2)csc1C	-0.8%
COc1ccc2sc(N3C(=O)C4CC=C(C)CC4C3=O)nc2c1 (stereo unspecified)	12.8%
CC(OC(=O)c1cccs1)C(=O)NCc1ccco1 (stereo unspecified)	-9.8%
Cc1ccc(N2CCN(c3ccc(C)cc3)C2c2ccccn2)cc1	-5.2%
COc1ccc(C(CC(=O)O)NC(C)=O)cc1OC (stereo unspecified)	1.9%
c1cc(C2OCCN2CC2COC3(CCCC3)O2)ccn1 (stereo unspecified)	-1.1%
COCC(C)NC(=O)C1CC(c2cccc(Br)c2)=NO1 (stereo unspecified)	10.5%
Cc1c(-n2c(SCC(=O)O)nnc2-c2ccccc2Cl)c(=O)n(-c2ccccc2)n1C	-7.8%

Nothing new here: an excerpt of the list.
SMILES	AmpC inh no det
CCOC(=O)c1[nH]c(C)c(/C(O)=C2\C(=O)C(=O)N(CCN(C)C)C2c2ccc(C)o2)c1C (stereo unspecified)	-1.9%
OC[C@@H]1O[C@@H](n2cnc3c(NC4CCCCC4)ncnc32)[C@@H](O)[C@H]1O	-3.6%
CSCC[C@H](NC(=O)NCc1ccccc1F)C(=O)O	7.4%

(more compounds)
SMILES	AmpC inh no det
CCOC(=O)C1CCN(C(=O)C2CCN(S(=O)(=O)c3cccc4cccnc34)CC2)CC1	95.2%
CCOC(=O)C1=C(O)CCn2c1nc1ccccc12	-4.0%
CCOC(=O)C1CCN(C(=O)CCNC(=O)c2cc(OC)c(OC)c(OC)c2)CC1	7.4%
Cc1cc(C(=O)CSc2nnnn2C)c(C)n1CCc1ccc(F)cc1	-20.5%
CCOc1ccc(C2C(C#N)=C(N)Oc3n[nH]c(C)c32)cc1OC(=O)C1CC1 (stereo unspecified)	3.5%
O=c1[nH]c2ccc(Cl)cc2c(=O)n1Cc1ccco1	-15.7%
CCOc1cc(S(=O)(=O)N2CCN(CC)CC2)ccc1Cl	9.4%
COc1ccc(-c2cc3nc(C)cc(NCCO)n3n2)cc1	6.6%
CCCCCCOc1ccc(CN2CCN(CCO)CC2)cc1	63.8%
COc1ccccc1NC(=O)CSc1nnc(-c2ccncc2)o1	-20.2%
Cc1cc2nc3c(=O)[nH]c(=O)nc-3n(C[C@H](O)[C@H](O)[C@H](O)CO)c2cc1C	-4.6%
COC(=O)c1ccccc1NC(=O)CSc1nc2c(c(=O)n(C)c(=O)n2C)n1C	-4.7%
COc1ccc(C(=O)c2c(C)n(CCN3CCOCC3)c3cc(I)ccc23)cc1	125.3%
CCOC(=O)C1CCCN(C(=O)c2cccs2)C1 (stereo unspecified)	-10.1%
O=CN1C[C@H]2C[C@@H](C1)c1cccc(=O)n1C2	4.9%
CN(C(=O)COC(=O)COc1ccc(Cl)cc1)C1CCCCC1	36.6%
Cc1cccc(N2CCN(C(=O)CCNC(=O)Cn3ccc4ccccc4c3=O)CC2)c1C	118.7%
COc1ccc(NC(=O)N(Cc2cccnc2)Cc2ccccc2Cl)c(OC)c1	89.2%
COc1ccc(C(=O)Nc2ccc3oc(-c4cccc(F)c4)nc3c2)cc1OC	2.3%
Cc1cc(Nc2cccc(C)c2C)n2nc(C)nc2n1	26.2%
COC(=O)C1=C(C)NC2=C(C(=O)CCC2)C1c1cccs1 (stereo unspecified)	-3.6%
COc1cccc(N2CCN(C3CC(=O)N(c4ccc(Cl)c(Cl)c4)C3=O)CC2)c1 (stereo unspecified)	90.7%
CC(=O)c1ccc(N2CCN(C(=O)c3ccc4c(=O)n(-c5ccccc5)c(=O)[nH]c4c3)CC2)cc1	61.9%
O=C(Nc1ccccc1N1CCN(C(=O)c2ccc(Cl)cc2)CC1)c1cccnc1	89.7%
CC(C)C(=O)N(c1ccc2oc(=O)sc2c1)S(=O)(=O)c1cccs1	-13.7%
N#Cc1cnn(Cc2ccc(Cl)cc2)c1N	1.3%
CCOC(=O)N1CCN(c2nnnn2-c2ccccc2)CC1	3.8%
Cc1cc(=O)[nH]c(/N=C(\N)Nc2ccc(Cl)cc2)n1	-12.3%[5.75 µM]
Fc1cccc(Cl)c1CSc1nnc(COc2cccc3cccnc23)o1	16.8%
CN(C)S(=O)(=O)c1ccc2c(c1)c(=O)c(C(=O)N1CCOCC1)cn2C	-4.0%
CCOCCCNC(=O)C(NC(=O)CC1NC(=O)NC1=O)c1ccc(Cl)cc1 (stereo unspecified)	15.2%
CCOC(=O)N1CCC(NC(=O)c2cnc3n(c2=O)CCS3)CC1	6.8%
CC(=O)OCC(=O)NCc1ccc2c(c1)OCO2	-16.8%
Cc1ccc(C(=O)NC(Cc2c[nH]c3ccccc23)C(=O)O)o1 (stereo unspecified)	-4.9%
COc1ccccc1-c1noc(-c2cccnc2)n1	14.2%
CC1(C(=O)N(CC(=O)NC2CCCC2)Cc2ccco2)CC(=O)N=C2C=CC=CN21 (stereo unspecified)	-5.5%

Exported with bars between the fields: part of the list above.
canonical_smiles | AmpC inh no det
CCOC(=O)N1CCN(c2nnnn2-c2ccccc2)CC1 | 3.8%
Cc1cc(=O)[nH]c(/N=C(\N)Nc2ccc(Cl)cc2)n1 | -12.3%[5.75 µM]
Fc1cccc(Cl)c1CSc1nnc(COc2cccc3cccnc23)o1 | 16.8%
CN(C)S(=O)(=O)c1ccc2c(c1)c(=O)c(C(=O)N1CCOCC1)cn2C | -4.0%
CCOCCCNC(=O)C(NC(=O)CC1NC(=O)NC1=O)c1ccc(Cl)cc1 (stereo unspecified) | 15.2%
CCOC(=O)N1CCC(NC(=O)c2cnc3n(c2=O)CCS3)CC1 | 6.8%
CC(=O)OCC(=O)NCc1ccc2c(c1)OCO2 | -16.8%

Other results.
SMILES	AmpC inh no det
COC(=O)N1CCC2(CC1)CCN(c1ccncc1)CC2	13.3%
CCOc1ccccc1C(=O)NCCCn1ccnc1	-7.7%
O=c1c2cnn(-c3ccc(F)cc3)c2ncn1Cc1ccccn1	-6.9%
COC(=O)N1CCC[C@@]2(CCN(Cc3nccs3)C2)C1	-4.3%
COc1cccc(C(=O)N(Cc2cc3cc(C)ccc3[nH]c2=O)CC2CCCO2)c1 (stereo unspecified)	80.0%
Cc1ccc(NC(=O)N2CCCC2C(=O)NCCC2=CCCCC2)cc1 (stereo unspecified)	14.6%
COc1ccccc1N1CCN(C/C(O)=C(\C#N)c2nc(-c3ccccc3)cs2)CC1	60.3%
CC(=O)N1CCN(c2ccc(NC(=O)COc3ccc(Cl)cc3Cl)cc2)CC1	131.8%
CC(=O)C1=C(C)NC(SCC(=O)c2ccc(Cl)c(Cl)c2)=C(C#N)C1c1ccco1 (stereo unspecified)	-3.5%
Cc1ccc(S(=O)(=O)N2CCN(C(=O)N3CCOCC3)C2c2ccc(N(C)C)cc2)cc1 (stereo unspecified)	120.1%
Cc1cc(NC(=O)c2ccccc2F)n(-c2nc3ccccc3[nH]2)n1	36.4%
O=C(CN1CCC2(CC1)OCCO2)c1ccc2cc[nH]c2c1	-1.3%
Cc1ccc(C(C)C)c(OCc2nnc(SCC(=O)Nc3nccs3)n2C)c1	3.6%
Cc1cc(C(=O)N2CCc3ccccc32)c2cc(F)ccc2n1	28.9%
O=C(CSc1nc2ccc(Cl)cc2[nH]1)NCc1ccco1	0.6%
Cc1occc1-c1nnc(SCC(=O)c2ccccc2)n1CC1CCCO1 (stereo unspecified)	20.9%
CN(Cc1ccco1)c1ncncc1-c1ccc2c(c1)OCO2	15.6%
COc1ccc(-c2noc(C3CCCN(S(=O)(=O)c4ccc(C)c(Cl)c4)C3)n2)cc1OC (stereo unspecified)	59.7%
Cn1c(NCCCO)nc2c(c1=O)C1(CCCCC1)Cc1ccccc1-2	107.1%
O=C(CN(C(=O)CNC(=O)c1ccco1)c1ccc(Cl)c(Cl)c1)NC1CCCCC1	89.4%
C=CCc1ccc(OCC(O)COCC)c(OC)c1 (stereo unspecified)	29.4%
CCC(=O)c1ccc(OCc2ccc(C(=O)OC)o2)c(OC)c1	-3.3%
CCOc1ccc(C2=Nn3cnnc3SC2)cc1	5.7%
Cc1ccccc1N	-5.7%&-7.3%
CCOC(=O)c1cccc(NC(=O)c2cc3sccc3n2C)c1	-8.8%
CCN1CCN(CC(=O)NC2CCCC2)C(=O)C1=O	14.4%
CCOc1ccccc1OCCCC(=O)N1CCN(S(=O)(=O)c2cccc(F)c2)CC1	139.6%
CC(C)Cc1cc(C(=O)Nc2ccc(F)cc2F)no1	3.98µM*[single pt active]
Cc1csc(SCc2ccccc2C(=O)O)n1	-18.2%
